HPGD block: inhibitors of human 15-hydroxyprostaglandin dehydrogenase (HPGD) | AID 894 | 4.3% of 150,000 active | Potency, µM, for the others: at the top dose activity change, negative = inhibition, usual class: inhibitors | purified HPGD, NADH fluorescence kinetic, PGE2 substrate; active = well fitted inhibition curve with a large enough effect (not every such curve was filed as active); inconclusive = small, poorly fitted or top-dose-only effect, or another doubt; inactive = no such curve, though single readings can be large or run the other way;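 further: top concentration of the series not given in the record; plate controls included wells without enzyme; inactives centre near -10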
Target sequence (P15428 whole entry, looked up): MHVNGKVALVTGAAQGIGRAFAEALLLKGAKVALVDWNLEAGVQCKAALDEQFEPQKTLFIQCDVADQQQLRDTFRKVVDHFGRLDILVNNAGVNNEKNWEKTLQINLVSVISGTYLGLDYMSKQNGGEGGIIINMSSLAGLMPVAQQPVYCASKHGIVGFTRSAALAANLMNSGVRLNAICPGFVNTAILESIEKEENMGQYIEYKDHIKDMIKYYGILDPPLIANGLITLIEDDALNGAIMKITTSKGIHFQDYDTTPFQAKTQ
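20 nM HPGD preincubated 15 min at room temperature with compound in 50 mM Tris-HCl pH 8, 0.01% Tween 20. Started with 1 mM NAD+ and 30 uM prostaglandin E2; NADH fluorescence (360/450 nm) read 5 times over 30-s intervals, last minus first.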
An asterisk follows results filed as active; ? = inconclusive. On the % scale 0 is the no-effect control and ±100 the full control effect; potency means the concentration at half of the fitted maximal effect.

HPGD block | structure
-2.1% | O=C(COC(=O)[C@H](Cc1ccccc1)NC(=O)c1cccs1)Nc1c(Cl)cccc1Cl
-18.7% | COc1nc(N)c(S(=O)(=O)c2ccccc2)cc1C#N
-6.1% | Cc1cccc(N2CCN(C(=O)C(C)C)CC2)c1C
-22.9% | COc1ccc(Cl)c(Cn2c(NCC(C)O)nc3c2c(=O)n(C)c(=O)n3C)c1 (stereo unspecified)
-23.0% | c1csc(Cc2nn3c(-c4ccncc4)nnc3s2)c1
-8.7% | O=C(Nc1ccc(N2CCN(C(=O)c3ccccc3)CC2)c(Cl)c1)c1ccco1
-9.5% | O=[N+]([O-])c1cc(-c2nnc(C34CC5CC(CC(C5)C3)C4)o2)cc([N+](=O)[O-])c1
-8.4% | CCC/C(O)=C1\C(=O)CC(C)(C)CC1=NCCO
? | O=c1c2sc3nc(N4CCOCC4)c4c(c3c2ncn1CCc1ccccc1)CCCC4
-22.3% | COC(=O)c1ccc(C(=O)OC)c(NC(=O)COc2ccccc2OC)c1
-11.8% | CCc1cccc(C)c1NC(=S)NCc1ccccc1
-11.3% | OCCn1c(-c2ccc(F)cc2)csc1=Nc1ccccc1
-10.2% | CCn1c(NCCc2ccc(OC)c(OC)c2)nc2c1c(=O)n(C)c(=O)n2C
31.6µM* | Cn1c(-c2ccc(F)cc2)cnc1SCC(=O)NCc1ccco1
-5.9% | Cc1ccsc1/C=C(\C#N)C(=O)NCc1ccco1
-9.3% | O=C(CNC(=S)N(Cc1ccccc1)Cc1cccnc1)NC1CCCC1
-8.1% | CC1CCCN(C(=O)C2CCCN(S(=O)(=O)c3cccc4nsnc34)C2)C1 (stereo unspecified)
-18.4% | O=C(Nc1ccc(Cl)cc1)c1ccsn1
-18.5% | Cn1c(=O)n(Cc2ccccc2)c(=O)c2c1nc1n2CCCN1Cc1ccccc1
-9.2% | C=CCN(CC=C)C(=O)c1c(OC)cccc1OC
-7.6% | Cn1cnc([N+](=O)[O-])c1[Se]c1nc(N)nc2c1ncn2[C@@H]1O[C@@H](CO)[C@H](O)[C@@H]1O
-13.7% | Cc1nnc(SCC(=O)N2CCc3ccccc3C2)n1-c1ccccc1
15.9% | O=C(C1CC1)N1CCc2cc(Br)cc(S(=O)(=O)NCc3ccc4c(c3)OCO4)c21
-16.6% | Cc1ccc2[nH]c(=O)c(CN(Cc3ccco3)C(=O)c3ccncc3)cc2c1
? | C[C@@H](C(=O)Nc1ccc2ccccc2c1)[C@@H]1C[C@@]1(C)[C@@H](NS(=O)(=O)c1ccc2ccccc2c1)c1ccccc1
-2.5% | CC(c1ccco1)N(C(=O)c1ccccc1NS(=O)(=O)c1cc([N+](=O)[O-])ccc1Cl)c1ccccn1 (stereo unspecified)
-13.1% | CCCCc1nn2c(N)c(/C=C3\C=Nc4ccccc43)c(=O)nc2s1
-18.4% | O=C(NC(=S)N1CCN(c2ccc([N+](=O)[O-])cc2)CC1)c1ccccc1F
-11.9% | CC(=O)c1cccc(NC(=O)C2CCCCC2)c1
? | Cc1ccc2nc(NC(=O)COC(=O)CSc3nc(C)cc(C)n3)sc2c1
-11.3% | C(=N\Nc1nc(-c2ccccc2)cs1)/c1ccco1
28.2µM* | Fc1ccccc1CSc1nnc(-c2cccs2)o1
-8.1% | CNc1c([N+](=O)[O-])ncn1C
-1.7% | Cc1ccc(S(=O)(=O)NCC(=O)OCC(=O)c2c(N)n(C)c(=O)n(C)c2=O)cc1
-14.0% | C=CCOc1ccc(/C(O)=C2/C(=O)C(=O)N(CCCN3CCOCC3)C2c2ccc(OC)cc2)cc1 (stereo unspecified)
-17.2% | Cc1ccc(/C=C(/C#N)C(=O)NC(=O)Oc2ccccc2)cc1
? | O=C(CSc1nc2ccccc2s1)NNC(=S)Nc1ccccc1
? | CC1CC(C)CN(c2ccc(C(=O)NCc3ccc4c(c3)OCO4)cc2[N+](=O)[O-])C1 (stereo unspecified)
? | COc1ccc(NC(=O)CN2c3cccc4cccc(c34)S2(=O)=O)c(OC)c1
-4.6% | Cc1ccc2c(CC(=O)NCc3ccc4c(c3)OCO4)coc2c1

Pulled by compound from the entries so far:
HPGD block | structure
-5.9% | Cc1ccsc1/C=C(\C#N)C(=O)NCc1ccco1
-11.3% | C(=N\Nc1nc(-c2ccccc2)cs1)/c1ccco1
-2.5% | CC(c1ccco1)N(C(=O)c1ccccc1NS(=O)(=O)c1cc([N+](=O)[O-])ccc1Cl)c1ccccn1 (stereo unspecified)
-8.1% | CNc1c([N+](=O)[O-])ncn1C

New compounds follow.
HPGD block | structure
-5.0% | COc1cc(OC)c(N2CC34C=CC(O3)C(C(=O)O)C4C2=O)cc1Cl (stereo unspecified)
-11.6% | CC1CCN(CCCNC(=O)C2CC(=O)N(C3CCCCCC3)C2)CC1 (stereo unspecified)
-6.4% | COC(=O)N[C@@H](c1cccc(C)c1)[C@@H](C)[N+](=O)[O-]
-8.7% | CCCCc1c(C)c(C#N)c2nc3ccccc3n2c1Nc1c(C)n(C)n(-c2ccccc2)c1=O
-12.7% | COc1ccccc1/C=C/C=N/NC(=O)CN1CCN(S(=O)(=O)c2ccc(C)cc2)CC1
15.8µM* | C=C1C(=O)C=C2CN(C(=O)c3ccccc3)[C@@](Cc3ccc(F)cc3)(C(=O)OC)[C@@H]12
? | Cc1ccc(-c2nn3c(C)nnc3c3ccccc23)cc1S(=O)(=O)NCc1ccccc1
1.3% | CS(=O)(=O)N1CCC(C(=O)NCc2ccncc2)CC1
-19.3% | CC(C)Nc1c(N)c(=O)oc2ccccc12
-27.8% | CC(=O)C1=C(O)C(=O)N(Cc2cccnc2)C1c1ccc(Cl)cc1Cl (stereo unspecified)
? | Cc1ccc(Nc2nc(N3CCOCC3)c3ccccc3n2)cc1
-9.2% | CSC1=NCCN1C(=O)c1cccs1
-13.9% | CCn1c(SCC(=O)Nc2cc(C)on2)nnc1-c1cccs1
-6.4% | CCOc1ccc(OCC)c(NC(=O)CCn2cccc2)c1
-18.0% | COCCN1C(=O)C(=O)/C(=C(/O)c2cccc(OC)c2)C1c1ccncc1 (stereo unspecified)
-14.5% | Cc1ccc(C(=O)NC2CCCc3ccccc32)o1 (stereo unspecified)
-18.6% | O=[N+]([O-])c1ccc(N2N=C(c3ccco3)CC2c2ccccc2)cc1 (stereo unspecified)
-3.5% | CCC(C)c1ccc(OCCN2CCCC2)cc1 (stereo unspecified)
-18.5% | COc1ccc(Cn2c(=O)[nH]c3cc(C(=O)N4CCN(Cc5ccccc5)CC4)ccc3c2=O)cc1
-18.4% | COc1ccccc1-n1c(SCC(=O)NCc2ccc3c(c2)OCO3)nc2cc([N+](=O)[O-])ccc21
-5.4% | Cc1ccc(NS(=O)(=O)c2ccc(NC(=O)c3ccc(Br)o3)cc2)c(C)c1
-3.6% | CC(NC(=S)Nc1ccc(Cl)cc1Cl)C(c1cccs1)N1CCCC1 (stereo unspecified)
-3.8% | Cc1ccc(NC(=O)c2ccccc2CCc2ccccc2)c(C)c1
8.91µM* | O=S(=O)(Nc1nc2ccc(S(=O)(=O)N3CCCCC3)cc2s1)c1ccccc1
31.6µM* | CC1CCN(C(=S)c2ccc(O)cc2)CC1
-27.2% | CCC(=O)NC(/C=C/c1ccccc1)c1cc([N+](=O)[O-])c2cccnc2c1O (stereo unspecified)
0.9% | O=C(CCS(=O)(=O)c1cccc2nonc12)N1CCOCC1
-26.1% | COc1ccc(CCNC(=O)c2c(O)c3cccc4c3n(c2=O)CC4)cc1
0.8% | N#Cc1ccc(C(=O)Nc2cc(S(=O)(=O)N3CCCC3)ccc2OCC(F)(F)F)cc1
-11.8% | O=C(COc1ccccc1)NCC(=O)NC1=NCCS1
-15.9% | CC(C)COc1ccc(C(=O)N/C(=C\c2cccc([N+](=O)[O-])c2)C(=O)OC(C)C)cc1
28.2µM* | CCc1c(C)sc(NC(=O)C2CCCO2)c1C#N (stereo unspecified)
-9.7% | O=C(Nc1ccccc1OC(=O)c1ccc(Cl)cc1)c1ccc(Cl)cc1
-25.7% | CCc1cc2c(=O)nc3n(c2s1)Cc1ccccc1/C3=C(/O)c1ccc(F)cc1
-11.4% | CCNS(=O)(=O)c1ccc2c(c1)NCC2
-7.3% | CCOC(=O)N1CCN(CC(O)COc2ccc(C)cc2C(C)(C)C)CC1 (stereo unspecified)
-9.6% | Cc1ccc(N(C)C(=O)N2CCN(S(=O)(=O)c3ccc(C)c(C)c3)CC2)cc1
-16.3% | CCCCNC(=S)Nc1ccc(Cl)cc1
-7.4% | CC1(C)Cc2ccccc2C(N/N=C/c2ccc(Cl)cc2)=N1
-18.5% | CSc1nc(Sc2cccc(Cl)c2)c2ccccc2n1
-10.2% | O=C(NNC(=O)[C@@H]1CCCC[C@@H]1C(=O)O)Nc1ccccc1
0.1% | CCOc1ccc(-n2nc3c(=S)[nH]nc(C)c3c2C)cc1
-13.7% | COc1ccc(C)cc1S(=O)(=O)N(C)CC(=O)NC1CC1
? | Cc1cc(C)nc(SCc2nc3ncccn3c2Br)n1
-12.0% | Cc1ccc(NC(=O)CCC(=O)NNC(=O)c2cccs2)c(C)c1
-0.6% | CCOC(=O)c1[nH]c(C)c(C(=O)OCC(=O)NC(=O)NC(C)(C)C)c1C
-8.1% | OC(CN1C2=NCCCN2c2ccccc21)c1ccc2c(c1)OCO2 (stereo unspecified)
4.1% | CC(C)(C)c1ccc(S(=O)(=O)NCC(=O)N2CCN(C(=O)c3ccco3)CC2)cc1
-5.5% | O=C(CN1CCN(c2ccc(Cl)cc2)CC1)Nc1ccc(F)c(F)c1
-4.9% | Cc1ccc(N(C(=O)C2COc3ccccc3O2)C(C(=O)NC2CCCCC2)c2cn(C)nc2C)cc1 (stereo unspecified)

Additional results
HPGD block | structure
-1.6% | O=C(CN1CCN(c2ccccc2F)CC1)c1ccc2c(c1)OCO2
-7.3% | COc1cccc(OC)c1C(=O)Nc1c(C)n(C)n(-c2ccccc2)c1=O
? | CCN1CCN(C(=S)c2ccc(SC)cc2)CC1
0.2% | CCCC1=C(C(=O)OCC)C(c2ccccc2OC)NC(=O)N1 (stereo unspecified)
-26.0% | Cc1ccc(NC(=O)c2cccs2)cc1NC(=O)c1ccco1
-1.7% | c1ccc(SC(Sc2ccccc2)c2ccc3c(c2)OCO3)cc1
-24.6% | CC(C)CCn1c(SCCN2CCOCC2)nc2c1c(=O)[nH]c(=O)n2C
-13.8% | CC(C)N(C(=O)CSc1nc2ccccc2n1-c1ccccc1)C(C)C
? | O=C(Nc1nnc(C2CC2)s1)c1ccc(Cl)c(S(=O)(=O)N2CCc3ccccc3C2)c1
-15.7% | CCOP(=O)(O)c1ccccc1OCCOc1ccccc1P(=O)(O)OCC

Two successive records out of the list so far, for reference:
HPGD block | structure
? | O=C(Nc1nnc(C2CC2)s1)c1ccc(Cl)c(S(=O)(=O)N2CCc3ccccc3C2)c1
-15.7% | CCOP(=O)(O)c1ccccc1OCCOc1ccccc1P(=O)(O)OCC

Next part:
HPGD block | structure
? | Cc1ccc(S(=O)(=O)c2nc(NC3CCS(=O)(=O)C3)sc2Cl)cc1 (stereo unspecified)
2.6% | CCCCN1C(=O)C(NC(C)=O)c2ccccc21 (stereo unspecified)
-4.3% | COc1ccc(C)cc1-n1nnnc1SCC(=O)Nc1cccnc1Cl
-25.4% | CCCOc1ccccc1-c1nc2c([nH]1)c(=O)[nH]c(=O)n2C
? | CCC1(C)Cc2c(sc3nn[nH]c(=O)c23)CO1 (stereo unspecified)
-11.0% | Cc1ccc(-n2c(O)c(/C=N/Nc3ccc(S(=O)(=O)N4CCOCC4)cc3[N+](=O)[O-])c3ccccc3c2=O)c(C)c1
-25.8% | Cc1cc(C)n(-c2nnc(C)n2/N=C/c2cc(Br)ccc2OCc2ccccc2)n1
-4.8% | CC(=O)C1=NN(c2ccccc2)C(c2cccs2)N1c1ccc(N(C)C)cc1 (stereo unspecified)
28.2µM* | CCN(C(=O)/C=C/c1ccc2c(c1)OCO2)c1ccccc1
-10.8% | CCC(C(=O)NC1CCCC1)n1c(SCc2cccc(C)c2)nc2ccncc21 (stereo unspecified)
-28.0% | O=C(Nc1cnc2sc3c(n2c1=O)CCCC3)c1ccc(F)cc1
-15.2% | O=C(CSc1nnc(CNc2ccccc2)o1)N1CCN(C(=O)c2ccco2)CC1
-21.6% | COc1ccc(Br)c2c1C[C@H](C(=O)O)CC2
-3.7% | COc1ccc(S(=O)(=O)N(Cc2nc3ccccc3c(=O)[nH]2)C2CCCC2)cc1
-6.0% | CC(C)Sc1oc(-c2ccco2)nc1S(=O)(=O)c1ccccc1
-9.2% | COC(=O)C1=C(C)NC(=O)CC1c1cc(Br)ccc1F (stereo unspecified)
-3.7% | CCOC(=O)c1[nH]c2ccc(F)cc2c1N=C(C)N(CC)CC
-8.9% | CCOc1ccccc1N1CCN(CC(=O)Nc2nnc(CC)s2)CC1
-9.3% | O=C(NCc1ccc2c(c1)OCO2)C1CCCN(S(=O)(=O)c2cccc3nonc23)C1 (stereo unspecified)
11.2µM* | O=C(COc1ccc(Br)cc1Cl)NC1CCCCC1
-24.3% | Cc1cccc(NC(=S)NNC(=O)c2cc3c(s2)CCC(C)C3)c1C (stereo unspecified)
22.4µM* | CCOC(=O)c1ccc(Nc2nnc3nc(C)cc(C)n23)cc1
-12.6% | Cc1ccc(C)c(CS(=O)(=O)c2cn(CC(=O)N3CCC(C)CC3)c3ccccc23)c1
1.6% | CC(=O)Nc1ccccc1NC(=O)CC(C)(C)C
-9.1% | O=C(O)CC12C[C@H]3C[C@@H](CC(O)(C3)C1)C2
-10.6% | CCC(CC)C(=O)Nc1cccc(C(=O)Nc2ccc(S(=O)(=O)Nc3ccc(C)cc3)cc2)c1

Looked up above:
`CCOC(=O)c1ccc(Nc2nnc3nc(C)cc(C)n23)cc1` in HPGD block → 22.4µM*
`Cc1cccc(NC(=S)NNC(=O)c2cc3c(s2)CCC(C)C3)c1C` (stereo unspecified) in HPGD block → -24.3%
`O=C(O)CC12C[C@H]3C[C@@H](CC(O)(C3)C1)C2` in HPGD block → -9.1%
`Cc1ccc(C)c(CS(=O)(=O)c2cn(CC(=O)N3CCC(C)CC3)c3ccccc23)c1` in HPGD block → -12.6%

Screens as filed in PubChem BioAssay.

These rows are one share of the data; rates above refer to the full screens.
